# Assay outcomes deposited in PubChem BioAssay by Johns Hopkins Ion Channel Center.
# KCNQ2 pot: potentiators of rat KCNQ2 potassium channel; CHO-K1 KCNQ2, FluxOR thallium flux fluorescence; hits give high values; B-score at 10 µM; 310,000 tested, 0.54% active; Potassium voltage-gated channel subfamily KQT member 2 (Rattus norvegicus), O88943;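 active means fluorescence ratio B-score at least 3 SD of library B-scores, with initial fluorescence B-score within 3 SD, cut at about 5.3 in these data; same plate scores as AID 2156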;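 further: B-score of peak minus minimum over baseline fluorescence ratio after K+ and Tl+ stimulus; positive B-score means potentiation of KCNQ2 with more thallium influx and brighter signal; only the inactives scoring about 0 or higher are listed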
# Target sequence (O88943 whole entry, looked up): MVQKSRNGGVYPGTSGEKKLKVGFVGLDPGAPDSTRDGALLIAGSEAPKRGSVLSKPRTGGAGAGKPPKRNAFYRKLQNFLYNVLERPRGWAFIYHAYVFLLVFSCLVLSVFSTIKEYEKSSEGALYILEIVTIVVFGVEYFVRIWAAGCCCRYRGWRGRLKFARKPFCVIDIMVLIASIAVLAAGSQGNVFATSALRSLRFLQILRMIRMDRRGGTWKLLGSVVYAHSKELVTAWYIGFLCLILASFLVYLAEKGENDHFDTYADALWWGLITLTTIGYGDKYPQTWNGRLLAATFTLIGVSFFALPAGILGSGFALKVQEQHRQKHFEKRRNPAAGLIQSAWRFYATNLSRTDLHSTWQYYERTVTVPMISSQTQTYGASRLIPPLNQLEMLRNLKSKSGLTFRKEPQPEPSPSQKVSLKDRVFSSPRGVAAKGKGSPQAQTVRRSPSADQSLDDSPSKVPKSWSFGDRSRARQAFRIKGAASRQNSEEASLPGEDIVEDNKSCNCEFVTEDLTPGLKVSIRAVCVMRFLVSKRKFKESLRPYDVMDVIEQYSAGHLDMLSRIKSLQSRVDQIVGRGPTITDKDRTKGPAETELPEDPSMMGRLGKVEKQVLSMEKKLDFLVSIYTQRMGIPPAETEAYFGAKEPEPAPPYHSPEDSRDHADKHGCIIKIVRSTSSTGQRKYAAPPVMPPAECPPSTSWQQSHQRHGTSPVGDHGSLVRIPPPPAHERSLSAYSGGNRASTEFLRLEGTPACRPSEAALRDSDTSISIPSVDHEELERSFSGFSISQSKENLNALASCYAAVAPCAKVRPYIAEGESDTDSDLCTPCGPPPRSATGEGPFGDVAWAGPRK
# KCNQ2 pot baseline: also measured in KCNQ2 pot; calls as there; B-score; compound at 10 µM; measured here: initial fluorescence intensity artifact check;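 brightness before thallium and not channel activity; 0 = typical well and far values either way flag optical interference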
# Active calls of the source: *; nt = no result given. The list is partial (hit frequency here may not be typical).
KCNQ2 pot baseline	KCNQ2 pot	canonical_smiles
-1.2	0.64	CC1(c2nnc(Cc3ccccc3)o2)CC(c2ccc(Cl)cc2)=NO1 (stereo unspecified)
-0.01	1.2	CC[N+](C)(C)c1cccc(O)c1
0.3	1.6	CCNc1cc(N2CCCC2)ccc1[N+](=O)[O-]
1.7	2.2	Cc1ccc2nc(N3CCOCC3)c(C=O)cc2c1
-1.2	1.2	COC(=O)c1cc(O)c(O)c(O)c1
-0.01	1.7	C=C(C)Cn1c(SCC(=O)NCc2ccco2)nc2sc3c(c2c1=O)CCC3
-2.6	1.6	Cc1c(N(C(=O)c2ccccn2)C2(C(=O)NC3CCCCC3)CCCCC2)c(=O)n(-c2ccccc2)n1C
-1.8	0.92	Cn1cnnc1SCc1ccc(C(=O)N=Nc2c(O)n(Cc3ccc(Cl)cc3)c3ccccc23)cc1
-0.87	0.07	COc1ccc(C(=O)OCC[N+]2(C)CCCCC2)cc1
0.64	0.46	CN1CCN(S(=O)(=O)c2ccc(NC(=O)c3ccc([N+](=O)[O-])cc3)cc2)CC1
-0.28	0.69	CCOC(=O)/C(C#N)=C/C1=C(N2CCOCC2)C(C)(C)OCC1
2.4*	5.6*	CC(CCc1ccccc1)NC(=S)NC(=O)c1ccco1 (stereo unspecified)
3.5	0.31	CC(=O)Nc1ccc(S(=O)(=O)Nc2nc3ccccc3nc2Sc2nncn2C)cc1
-0.42	1.1	COc1ccccc1NC(=O)CN1CCN(Cc2ccccc2)CC1
0	0.46	CCN(CC(=O)Nc1c(F)cccc1F)C(=O)CN1C(=O)NC2(CCCC2)C1=O
-0.7	1.2	CSc1ccc(CN(C)C(=O)CSCC(=O)Nc2cc(C)on2)cc1
1.6	0.27	CCOc1ccc(NC(=O)CS(=O)CC(=O)NC2CCCc3ccccc32)cc1 (stereo unspecified)
0.8	1	CCOC(=O)c1ccc(NC(=O)COc2ccc(S(=O)(=O)NC(C)CC)cc2)cc1 (stereo unspecified)
-0.8	0.11	O=C(O)C1C2C=CC(C2)C1C(=O)Nc1ccc(Cl)c(Cl)c1 (stereo unspecified)
1.8	0.72	Cc1cc(C)cc(N(CC(=O)NC2CCCC2)C(=O)CNC(=O)c2cccs2)c1
-1.7	0.49	Cc1cc2c(cc1[N+](=O)[O-])NC(CNC(C)C)CC2 (stereo unspecified)
-0.22	0.52	Cc1nn(CCC(=O)NNC(=S)Nc2ccccc2)c(C)c1Br
2.1	0.84	CCOC(=O)NCc1ccccc1
-2.6	1.1	O=C(/C=C/c1cccc([N+](=O)[O-])c1)Nc1ccc(NC(=O)c2cccs2)cc1
-0.2	1.2	O=c1[nH]c(CN2CCN(c3ccccc3O)CC2)nc2ccccc12
-1.2	0.23	CCN1C(=NCCc2ccccn2)N[C@@H](c2cccc(F)c2)C(C(=O)OC)=C1C
0.19	1.3	O=C(CSCc1ccco1)N1CCc2ccccc21
-1.5	0.35	CC(C)=NOc1nc(N(C)C)nc(N2CCOCC2)n1
-2.2	0.08	Cc1ccccc1Nc1nnc(C)c(=O)[nH]1
-0.15	2.1	O=C(CNS(=O)(=O)c1ccccc1)NCC(=O)OCc1ccc(Br)cc1
0.01	0.52	COc1cc(NC(=O)CN2CCCCCC2)cc(OC)c1
0.06	0.2	Cc1cc(S(=O)(=O)N2CCCC2C(=O)N2CCOCC2)c(C)cc1Cl (stereo unspecified)

# 4 of the entries above in order of their number in KCNQ2 pot baseline, smallest number first:
KCNQ2 pot baseline	KCNQ2 pot	canonical_smiles
-1.2	0.23	CCN1C(=NCCc2ccccn2)N[C@@H](c2cccc(F)c2)C(C(=O)OC)=C1C
-0.15	2.1	O=C(CNS(=O)(=O)c1ccccc1)NCC(=O)OCc1ccc(Br)cc1
0.01	0.52	COc1cc(NC(=O)CN2CCCCCC2)cc(OC)c1
0.06	0.2	Cc1cc(S(=O)(=O)N2CCCC2C(=O)N2CCOCC2)c(C)cc1Cl (stereo unspecified)

# Continuation.
KCNQ2 pot baseline	KCNQ2 pot	canonical_smiles
nt	-5.5	CN(CCc1ccccc1)C(=O)c1cc(COc2cccc(C(F)(F)F)c2)on1
-1.8	1.4	O=C(COC(=O)COc1cccc(C(F)(F)F)c1)NC1CCCC1
0.6	1.3	O=c1c(O)c(-c2ccc3c(c2)OCO3)oc2ccccc12
-1.3	0.43	O=C(CN1CCC(NC(=O)c2ccccc2F)CC1)NCc1ccc(F)cc1
1.4	1.3	O=C(O)CCCCCCNS(=O)(=O)c1ccccc1
0.26	0.69	O=C(Nc1nc2c(s1)CN(Cc1ccccc1)CC2)C1CCC1
-0.51	1.5	Cc1c(OC(C)C(=O)NCc2ccccn2)ccc2c3c(c(=O)oc12)CCCC3 (stereo unspecified)
-2.3	1.1	Nc1c(C(=O)NC2CCCC2)c2nc3ccccc3nc2n1N
-0.21	0.4	O=C(CN1C(=O)COc2ccc(S(=O)(=O)N3CCCC3)cc21)N1CCCC1
0.3	0.62	CC(C)c1ccc2[nH]c3c(c2c1)[C@@H]1CCN2C(=O)CCC[C@H](C3)[C@H]12
0.09	0.39	CC(=O)N1c2c(cc(Br)cc2S(=O)(=O)N2CCOCC2)CC1C (stereo unspecified)
0.55	1.1	O=C(NC1=NCCS1)C1CC2CCC1C2 (stereo unspecified)
-0.16	0.51	O=C1CCCC(=O)C1C(=O)C1CCN(S(=O)(=O)c2ccccc2)CC1
1.3	2.7	CCOC(=O)CN1C(=O)C2(OCCCO2)c2ccccc21
0.62	0.02	Nc1ccc(OCCc2ccccc2)cc1
-0.46	2	CCSC(C)CC1C/C(=N/O)c2c(C)noc2C1 (stereo unspecified)
0.59	2	Cc1cc(C)c2c(N)c(S(=O)(=O)Cc3ccccc3)sc2n1
-1.4	1.1	CCCCCCNS(=O)(=O)c1ccc(NC(=O)C2CCCO2)cc1 (stereo unspecified)
0.52	0.02	Cn1nc(-c2ccccc2)c2nc3ccccc3nc21
-2.6	0.05	O=c1c(Cc2ccc(F)cc2)c(O)ccn1CC1CCCO1 (stereo unspecified)
-0.45	0.46	CC(=O)c1ccc2oc3ccccc3c(=O)c2c1
0.12	0.86	Cc1cc(/C=C(\C#N)C(=O)NCCc2c[nH]c3ccccc23)c(C)n1C
-0.35	0.72	COc1cc(S(=O)(=O)Nc2cc(C)cc(C)c2)ccc1F
-0.43	0.03	CCCNC(=O)c1nn2cc(Br)cnc2c1Br
0.03	0.44	Cc1cccc(NC(=O)c2cc(-c3cc(C)cc(C)c3O)n[nH]2)c1
-0.35	0.95	COCCN(C(=O)COC(=O)c1oc2ccc(OC)cc2c1C)c1c(N)n(Cc2ccccc2)c(=O)[nH]c1=O
-1.8	3	CCOC(=O)N1CCC(NC(=O)Cn2cccc2C(=O)c2ccccc2)CC1
3.7	0.67	CCCC(=O)NC(=S)Nc1ccc(NC(=O)C(C)C)c(OC)c1
0	1.2	C#CCOCCOCCOCCNc1nc(N2CCN(C(=O)C([C@@H](C)CC)n3cc(C(N)CO)nn3)CC2)nc(N2CCN(C(=O)[C@H](CCC(=O)O)n3cc(C(N)[C@H](C)CC)nn3)CC2)n1 (stereo partly specified)
-0.14	0.43	O=C(COC(=O)CN1C(=O)C2CCCCC2C1=O)NNC(=O)c1ccc(Cl)cc1 (stereo unspecified)
-0.27	1.2	O=C(Cc1ccccc1)Nc1c(C(=O)N2CCCCCC2)cnn1-c1ccccc1
0.33	1.6	CC(C)(C)N1C(=O)c2ccc(C(=O)Nc3ccc(O)cc3)cc2C1=O
0.59	0.65	NC(=O)c1nsc(C(=O)N(c2ccc(F)cc2)C(C(=O)NCC2CCCO2)c2c[nH]c3ccccc23)c1N (stereo unspecified)
1.3	1.4	COc1ccc(-n2c(N)c(C(=O)NCc3cccnc3)sc2=S)cc1
0.04	0.6	N#C/C(=C\Nc1ccc(Cl)cc1)S(=O)(=O)c1ccccn1
-2	1.1	O=C(COc1ccc(Br)cc1)NCCNC(=O)c1cccnc1
-0.63	0.39	COc1ccc(C2C(C#N)=C(N)Oc3c2c(C)nn3-c2ccccc2)cc1Cn1nc(C)c([N+](=O)[O-])c1C (stereo unspecified)
1.4	0.36	CCC(=O)NC(NC(=O)CC)C(Cl)Cl
-0.82	1.4	CCCCN1CN=C(Nc2nc3ccccc3o2)NC1
0.62	0.92	COc1ccccc1N1CCN(C(=O)c2ccc(NC(C)=O)cc2)CC1
1.9	0.65	COc1ccccc1C(=O)NCCC(=O)NC1CCCCC1C (stereo unspecified)
0.66	0.25	CC(=O)c1ccccc1NC(=O)CC1(CC(=O)O)CCCCC1
2.3	0.15	COc1ccc(-c2nc(NC(=O)c3nc4nccc(C)n4n3)sc2C)cc1
-1.5	0.44	O=C(CCC(=O)OCC(=O)c1ccc(Cl)cc1Cl)Nc1cccc2cccnc12
0.83	0.56	COc1ccc(C(=S)N2CCOCC2)cc1OC(=O)c1cc(OC)c(OC)c(OC)c1
-0.95	0.7	COC(=O)c1c(NC(=O)CC2Nc3ccccc3NC2=O)sc(C)c1C (stereo unspecified)
0.15	0.13	COc1ccc2nc3c(cc2c1)c(NC(=O)C1CCCO1)nn3CC(C)C (stereo unspecified)
0.36	1.5	Cc1ccc(OCCn2c(SCCO)nc3c(N)ncnc32)cc1
-0.49	0.16	O=C(N1CCNCC1)N1CCOCC1
0.68	1.2	O=C1NCCN/C1=C\C(=O)c1ccccc1
0.25	1.2	Cc1ccc(C(=O)Cn2nnc(-c3ccccc3-n3cnnn3)n2)cc1
-1.6	1.1	Cc1ccc(NC(=O)CSc2nnc(NC(=O)c3ccc(S(=O)(=O)N4CCOCC4)cc3)s2)cc1
-1.7*	6.8*	CCC(C)n1c(=S)[nH]c2ccccc2c1=O (stereo unspecified)
0.16	0.07	Cc1ccc(S(=O)(=O)CCC(=O)OCc2ccccc2F)cc1
0.28	0.02	Cc1ccc(NC(=O)CSc2nccn2C)cc1F
-0.07	0.55	COc1ccc(Nc2ccnc(Nc3ccc(OC)cc3)n2)cc1

# Compounds above containing a COOH group:
KCNQ2 pot baseline	KCNQ2 pot	canonical_smiles
-0.8	0.11	O=C(O)C1C2C=CC(C2)C1C(=O)Nc1ccc(Cl)c(Cl)c1 (stereo unspecified)
1.4	1.3	O=C(O)CCCCCCNS(=O)(=O)c1ccccc1
0	1.2	C#CCOCCOCCOCCNc1nc(N2CCN(C(=O)C([C@@H](C)CC)n3cc(C(N)CO)nn3)CC2)nc(N2CCN(C(=O)[C@H](CCC(=O)O)n3cc(C(N)[C@H](C)CC)nn3)CC2)n1 (stereo partly specified)
0.66	0.25	CC(=O)c1ccccc1NC(=O)CC1(CC(=O)O)CCCCC1

# Other results follow:
KCNQ2 pot baseline	KCNQ2 pot	canonical_smiles
0.01	0.51	O=C(O)CC(C(=O)NC1CCCCC1)C1CCCO1 (stereo unspecified)
-0.79	0.01	COCCSc1ccccc1C(=O)Nc1cc(C)ccn1
-1.7	0.03	CCCCn1c(C(C)NC(=O)COC)nc2ccccc21 (stereo unspecified)
-0.55	2.2	CN1C(=O)C(O)(CC(=O)c2cccnc2)c2ccccc21 (stereo unspecified)
-1.4	2	CC(=O)Nc1ccc(S(=O)(=O)NNC(=O)c2ccc([N+](=O)[O-])cc2)cc1
0.22	1.1	O=C(N/N=C/C=C/c1cccc([N+](=O)[O-])c1)C(O)c1ccccc1 (stereo unspecified)
1.1	1.4	O=C1CCc2cc(S(=O)(=O)NCCCC(=O)N3CCN(Cc4ccc5c(c4)OCO5)CC3)ccc2N1
-0.46	0.07	Oc1ccc(N2CCN(c3ccnc4cc(Cl)ccc34)CC2)cc1
-0.64	1.6	CCc1cc(CNC(=O)c2cc(COc3ccc(C)nc3)on2)on1
0.46	0.09	CCCCn1c(N)c(N(CC(C)C)C(=O)CN(C)Cc2cccc(OC)c2)c(=O)[nH]c1=O
-2.1	1.8	CN=c1c([N+](=O)[O-])nn(-c2ccc3c(c2)OCCO3)n1O
1.8	0.25	CC(C)C(=O)N=C1NC(=O)CS1
0.28	1.2	Nn1c(SCC(=O)Nc2ccc3c(c2)OCCO3)nnc(CCC(=O)O)c1=O
0.11	0.38	COc1ccc(-c2nc(CS(=O)CC(=O)NC3CCCC3)c(C)o2)cc1 (stereo unspecified)
0.15	0.02	CCC(=O)NC(=S)Nc1ccc(-c2nc3ccccc3s2)cc1
-0.93	1.4	COc1ccc(C(c2nnnn2CCc2ccccc2)N2CCN(C)CC2)cc1OC (stereo unspecified)
-0.54	1.3	Cn1cccc1/C=C1\SC(=Nc2cccc(O)c2)NC1=O
-0.1	0.51	CN1CCN(C2CCCCCC2)CC1
-1.6	0.17	O=C(/C=C/NCc1ccc(F)cc1)c1ccccc1
-0.43	0.01	COc1ccc(C(=O)CCC(=O)Nc2cc(Cl)c(O)c(Cl)c2)cc1
-0.73	1.1	Cc1ccc2nc(SCC(=O)N/N=C/c3ccc(C(=O)O)cc3)cc(C)c2c1
1.1	0.91	O=C(CSc1nnnn1Cc1ccccc1)NC1CCCCC1
-1.8	0.9	CCc1ccc(C2NC(=S)NC3=C2C(=O)CCC3)cc1 (stereo unspecified)
-0.06	2.1	COc1ccc(C(C(=O)NC2CCCCC2)N(C(=O)c2ccco2)c2ccccc2C(C)=O)cc1OC (stereo unspecified)
-0.48	2.3	CC(NC(=O)COC(=O)CCc1nc2ccccc2c(=O)[nH]1)c1ccccc1 (stereo unspecified)
3.7	1.4	C#CCOCCOCCOCCNc1nc(N2CCN(C(=O)[C@H](CCCCN)n3cc(C(N)CO)nn3)CC2)nc(N2CCN(C(=O)[C@H](CCCCN)n3cc(C(N)COC(=O)C(F)(F)F)nn3)CC2)n1 (stereo partly specified)
1.2	0.78	C=CCn1c(COc2ccccc2C)nnc1SCC(=O)O
-1.2	2	COc1ccccc1N1CCN(CC(O)c2c(C)[nH]c3ccccc23)CC1 (stereo unspecified)
0.15	0.53	CCC1(C)CC(C(CC(=O)O)c2ccc(C)cc2)CCO1 (stereo unspecified)
0.28	0.21	Cc1ccc(OCc2ccc(C(=O)N3CCCC3)o2)c([N+](=O)[O-])c1
-1.9	0.9	CCn1c(SCC(=O)N/N=C/c2ccc(C)o2)nnc1-c1ccc(C(C)(C)C)cc1
-0.13	1.1	CCc1cc2cc3c(cc2nc1SCC(=O)N1CCN(C(=O)c2ccco2)CC1)OCO3
